Bioassay records: PubChem BioAssay, several laboratories
PrP 5UTR inh – inhibition of PrP 5' UTR reporter expression; 0.35% of 340,000 active; AID 488862; inhibition, % (test concentration not listed); cell-based PrP 5' UTR mRNA reporter, plate reader;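 active = every replicate at 50% or more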;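 also: 0 = median of the neutral control wells; tested in H4 reporter cells; numbers are from one replicate; inactives centre near -14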
Mtb hypoxia rep – reduces hypoxia-regulated biosensor signal in M. tuberculosis; M. tuberculosis hypoxia-regulated fluorescent reporter, fluorescence; fluorescence inhibition, % (test concentration not listed); 0.1% of 300,000 active; AID 1159583;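 active = 35 to 45% if threefold the growth effect, above 45% if 1.5-fold the growth effect; inactive = the rest, general growth blockers included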;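 also: wells of about 50 µL received 100 nL stock; 0% = vehicle wells and 100% = reference inhibitor wells; whole bacteria with a GFP reporter of the hypoxia response; strong numbers were not always called active; many hits fall short of the cut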
Autofluor counter – compound fluorescence in toxin protease inhibitor counterscreen; compound autofluorescence counterscreen, microsphere flow cytometry; hits give high values; fluorescence intensity (concentration not given with the values); 3.1% of 360,000 active; AID 624483;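 active = at least 3 SD above the mean of all compounds, about 16000 in these data; inconclusive = too few beads counted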;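 also: 100 nL of 1 mM stock went into each well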
RN4220 kill – kills Staphylococcus aureus RN4220 | S. aureus RN4220 growth, OD600, 16 h | inhibition, % (concentration not given with the values) | 0.33% of 330,000 active;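 active = z-score of -3 or lower and OD600 up to 0.18 on both plates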;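 also: plate controls were untreated cells for no effect and reference antibiotic for full effect; stock transfer was 100 nL into about 80 µL; one replicate is shown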
BJeLR lethal – BJeLR cell viability loss. AID 1554. inhibition, % (test concentration not listed). BJeLR (HRASV12) viability, CellTiter-Glo ATP luminescence, 48 h; reference of the scale not given here. 0.17% of 300,000 active;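 active = replicate mean above 50%; inconclusive = above 50% but judged a plate artefact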;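 also: 50 nL library stock added to about 25 µL; numbers are from one replicate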
ugtP null kill – compounds lethal to S. aureus RN4220 ugtP deletion mutant. OD600 growth, 16 h; some inactives read as strong as hits. growth inhibition, % (test concentration not listed). 0.54% of 330,000 active. AID 1259309;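 active = z-score under -3 and OD600 up to 0.15 on both plates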;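 also: plate controls were untreated wells for no effect and antibiotic for full effect; wells of about 80 µL received 100 nL stock; the first replicate is given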
Mtb hypoxia rep growth – further read-out of Mtb hypoxia rep, marked with its call; growth inhibition, %; measured here: M. tuberculosis growth (absorbance);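 0% = vehicle and 100% = reference antibiotic; read after six days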
Numbers without * were called inactive; ? = inconclusive; / = no result given.

smiles,RN4220 kill,Mtb hypoxia rep,Autofluor counter,ugtP null kill,BJeLR lethal,PrP 5UTR inh,Mtb hypoxia rep growth
Cc1ccc(NC(=S)NNC(=O)c2ccco2)cc1,-0.4,3,21506*,3,4,-10,0
Cc1cc(O)cc2c(=O)c3ccccc3sc12,3.2,6,4599,15,-5,-4,-9
COc1cccc(CC(=S)N2CCOCC2)c1,6.2,10,8610,7,19,-33,2
COc1cc(/C=C/C(=O)OCC(=O)NC(=O)NC2CCCCC2)ccc1OC(F)F,2.2,14,6256,11,-3,-3,12
CN(C)c1ccc(C(O)P(=O)(OCc2ccccc2)c2ccc(N(C)C)cc2)cc1 (stereo unspecified),2.3,11,/,4,0,/,10
Cc1cc[n+](-c2nc([O-])sc2/C=N/Nc2ccc([N+](=O)[O-])cc2)cc1,/,/,4091,/,-4,-27,/
O=C(CCCCCN1C(=O)[C@@H]2Cc3ccccc3CN2C1=O)NCCc1ccccc1,3.5,-1,5767,-1,12,-34,3
Cc1nnc(SCc2cc(=O)[nH]c(N=C(N)Nc3ccccc3)n2)s1,2.4,22,/,2,/,/,13
Cc1nc2ccc(C(=O)Nc3cccc([N+](=O)[O-])c3)cc2s1,2.4,-19,4878,-8,0,-24,-1
COc1ccc(-c2nn(CCC#N)cc2C(=O)Nc2ccc(C(C)=O)cc2)cc1,-2.3,6,3487,0,8,-6,-1
Cc1ccc(/C=C/C(=O)Nc2cc(=O)n(C)c(=O)n2C)o1,5.2,6,2479,2,-12,-20,7
Clc1ccc(-c2ccc(/C=N/Nc3cc(N4CCOCC4)nc(N4CCOCC4)n3)o2)cc1,/,/,2303,/,5,-1,/
COc1cc(C(=O)N/C(=C\c2cn(C)c3ccccc23)C(=O)NCCN2CCOCC2)cc(OC)c1OC,1.0,7,4308,14,5,-32,3
O=C(O)c1ccc(CSc2nnnn2C2CCCCC2)cc1,4.7,-8,9080,5,-2,-29,3
Cc1cc(C)nc(SCC(=O)NC2=NC(=O)C(C)S2)n1 (stereo unspecified),3.5,-1,/,-2,1,/,-1

Next part, overlapping the part above by two compounds.
smiles,RN4220 kill,Mtb hypoxia rep,Autofluor counter,ugtP null kill,BJeLR lethal,PrP 5UTR inh,Mtb hypoxia rep growth
O=C(O)c1ccc(CSc2nnnn2C2CCCCC2)cc1,4.7,-8,9080,5,-2,-29,3
Cc1cc(C)nc(SCC(=O)NC2=NC(=O)C(C)S2)n1 (stereo unspecified),3.5,-1,/,-2,1,/,-1
O=[N+]([O-])/C(C=Nc1ccccc1O)=C\Nc1ccccc1O,19,/,4539,21,-7,-9,/
O=C(Cc1cccs1)NCCc1cn2ccccc2n1,0.1,-10,5870,-2,-2,3,-2
COc1ccc(-c2nn(-c3ccccc3)cc2C(=O)N2CCN(S(=O)(=O)c3cccc(F)c3)CC2)cc1,3.9,5,6707,-2,-1,-8,3
C=CCOc1c(Cl)cc(CNn2cn[nH]c2=S)cc1OC,5.7,1,4692,12,1,-12,-4
Cc1nn(C(=O)c2ccco2)c(C)c1Sc1ccc([N+](=O)[O-])cc1,-2.6,/,5385,10,-1,-18,/
CC(C(=O)N1CC2(C)CC1CC(C)(C)C2)N1C(=O)c2ccccc2C1=O (stereo unspecified),6.3,4,2911,1,-5,-12,4
COc1ccc(-c2ccc3c(c2)C2CC3CCN2CCC#N)cc1 (stereo unspecified),10,-12,3728,0,/,-26,6
C=CCN1C(=O)c2ccc(C(=O)N(C)CC(=O)Nc3cccc(F)c3)cc2C1=O,-0.5,0,4974,-1,2,-12,1
COc1cc(NC(=O)c2ccc(Br)o2)c(C(=O)O)cc1OC,8.2,/,2636,6,2,-37,/
CCOc1ccc(NC(=O)c2cccc3c2C(=O)N(CCOC)C3)cc1,-0.9,10,4143,-1,-11,-34,11
CCOCCCNCc1ccc(Cl)cc1,/,/,1952,/,5,-5,/
O=C(/C=C/c1ccco1)N(Cc1cccc(Cl)c1)C1CCS(=O)(=O)C1 (stereo unspecified),5.0,11,5911,4,8,-17,-2
O=C(O)c1cnn2c(-c3ccc(F)cc3)ccnc12,-3.6,-5,5363,-5,3,-17,-8
O=C(NCc1ccc2c(c1)OCO2)c1cnc2n(c1=O)CCS2,5.3,0,4535,-4,1,1,10
Cc1ccc(NC(=O)N2CCC(C(=O)Nc3ccc(C)cc3C)CC2)cc1,3.3,4,10071,-1,0,-19,10

Going on with the list:
smiles,RN4220 kill,Mtb hypoxia rep,Autofluor counter,ugtP null kill,BJeLR lethal,PrP 5UTR inh,Mtb hypoxia rep growth
CN(C)CCCN(C(=O)c1ccc(S(=O)(=O)N2CCOCC2)cc1)c1nc2ccc(F)cc2s1,/,/,6299,/,7,-12,/
CCn1c(Cc2ccccc2)nnc1SCC(=O)NC(C)(C)C,2.9,4,11399,-1,8,-6,5
CCCc1ccc(-c2ccc(-c3noc(-c4ccncc4)n3)cc2)nc1,-6.2,13,3778,14,-1,-21,7
CCCc1cc(=O)n2[nH]c(C)c(-c3ccc(OC)cc3)c2n1,/,/,3799,/,3,-40,/
Cc1cccc(/C(N)=N/OC(=O)CCCN2C(=O)c3ccccc3C2=O)c1,/,/,3298,/,-7,-2,/
NC(=O)COC(=O)c1cc(=O)[nH]c2ccccc12,0.9,7,4721,12,8,-22,7
CC(Sc1nc2ccccc2[nH]1)C(=O)NC1CCCCC1C (stereo unspecified),/,/,6080,/,6,-27,/
CCOC(=O)C1CCN(c2cc(=O)n(-c3ccccc3Cl)c(=O)[nH]2)CC1,0.4,-12,8069,-2,2,-13,0
COC(=O)Cn1ncc(N2CC(C)OC(C)C2)c(Cl)c1=O (stereo unspecified),4.9,14,5751,7,-13,-12,12
CC(C)CN(C(=O)COC(=O)CNC(=O)c1ccc(Cl)cc1)C1CCS(=O)(=O)C1 (stereo unspecified),8.2,3,4601,0,-8,-14,7
O=C1C=C(c2ccccc2Oc2ccccc2)CC(c2ccc3c(c2)OCO3)C1 (stereo unspecified),0.9,12,/,17,/,/,10
CC(C)NC(=O)CCN1C(=O)c2ccccc2Sc2ncccc21,2.5,-1,3691,2,-3,-27,2
CC(=O)c1cc(C(=O)N2CCc3c([nH]c4ccccc34)C2CC(C)C)[nH]n1 (stereo unspecified),6.6,4,4535,-3,-3,-4,0
O=C(CN(Cc1ccco1)S(=O)(=O)c1ccccc1)NN=Cc1ccccc1C(=O)O,12,0,/,0,/,/,-1
Cc1cc(NC(=O)CSc2nc(-c3cccnc3)ccc2C#N)no1,9.7,/,2335,16,-1,-18,/

Further entries
smiles,RN4220 kill,Mtb hypoxia rep,Autofluor counter,ugtP null kill,BJeLR lethal,PrP 5UTR inh,Mtb hypoxia rep growth
Cc1cccc(C(C(=O)NC2CCCCC2)N(C(=O)c2csnn2)C2CC2)c1 (stereo unspecified),-0.4,-1,4053,9,9,2,9
CCNC(=O)CN1C(=O)NC2(CCOc3ccccc32)C1=O (stereo unspecified),0.7,1,5941,6,-5,-23,-5
Cc1ccccc1C(=O)Nc1cc(S(=O)(=O)N2CCCCC2)ccc1N1CCN(C)CC1,4.8,2,9059,13,13,-13,9
Cc1c(CC(=O)NCCCC(=O)O)c(=O)oc2c(C)c3oc4c(c3cc12)CCCC4,2.5,4,3844,-2,7,-1,-4
CCOc1ccc(C(=O)NNC(=O)C2CC(=O)N(c3ccc(C)cc3)C2)cc1 (stereo unspecified),-1.8,-5,5982,-2,-8,-29,13
CC(=NO)C(C)NC(=O)c1ccccc1 (stereo unspecified),1.2,16,/,11,/,/,7
O=C(Nc1nc2ccccc2[nH]1)Nc1ccccc1F,1.6,-4,5178,-3,1,-70,-6
COc1ccc(CNCCCC(=O)Nc2c(Cl)ccc(C)c2Cl)cc1OC,1.6,-3,6160,5,-1,-8,-5
Cc1cccc(C(=O)NCCCNC(=O)c2ccccn2)c1,4.5,2,5500,-2,-9,-9,-4
O=C(Nc1cccnc1)c1ccccc1-c1nc(-c2ccccc2F)no1,-2.4,4,21936*,-4,-5,-61,6
COc1ccc(N(CCC(=O)NCCc2ccccc2)S(=O)(=O)c2ccc(C)cc2C)cc1,2.5,-1,6213,6,/,-23,-4
CCN(C(=O)COC(=O)c1cc(S(=O)(=O)N2CCOCC2)ccc1F)C1CCS(=O)(=O)C1 (stereo unspecified),-2.5,-2,?,-3,-5,-3,1
Cn1c(C2CCCN2C(=O)OC(C)(C)C)n[nH]c1=S (stereo unspecified),-3.5,/,3252,12,-10,-6,/
CC(=O)Nc1ccc(C(=O)CS(=O)(=O)c2ccc(C)cc2)cc1,-0.5,/,2808,0,-1,-2,/
CC(C)C[C@H](NC(=O)c1[nH]cnc1C(=O)Nc1ccc(Cl)cc1)C(=O)OC(C)(C)C,/,/,2917,/,3,4,/

The listing continues.
smiles,RN4220 kill,Mtb hypoxia rep,Autofluor counter,ugtP null kill,BJeLR lethal,PrP 5UTR inh,Mtb hypoxia rep growth
COc1ccc(OC)c(NC(=O)CCN2CC(C)OC(C)C2)c1 (stereo unspecified),4.9,1,8734,7,-2,-6,-2
C=CCSC1=Nc2cc(OC)c(OC)cc2C2=NC(=O)CN12,3.2,16,3630,3,/,-9,5
O=C(O)c1csc(N/N=C/c2ccc(Br)cc2)n1,/,/,4221,/,5,-33,/
COc1cc(C(=O)Nc2ccc(Cl)c([N+](=O)[O-])c2)cc(OC)c1OC,7.9,7,4943,-8,5,-24,1
COc1cc(COc2ccc3c(C)c(Cc4ccccc4)c(=O)oc3c2)cc(OC)c1OC,5.5,0,4659,-3,4,-18,-2
CSc1ccccc1NC(=O)CN(C)CC(=O)Nc1c(F)cccc1F,2.2,6,2053,12,-2,-12,4
Cc1ccc(SCC(=O)NNC(=O)CCS(=O)(=O)c2ccccc2)cc1,-1.0,8,3812,4,/,-11,13
COc1ccc(NC(=O)NN2CCOCC2)cc1OC,7.5,20,4394,7,-4,2,8
CCCCCCCCCCCCCCCC[n+]1ccc(C(N)=O)cc1,100*,18,7346,100*,/,-12,10
COc1cc(OC)cc(C(=O)Nc2ncn[nH]2)c1,0.9,0,3298,-10,/,-11,5
NS(=O)(=O)c1cccn1-c1ncc(C(F)(F)F)cc1Cl,23,/,4660,-8,-3,-7,/
COc1ccccc1N1CCN(c2ccc(S(=O)(=O)N3CCN(C)CC3)cn2)CC1,6.7,-1,3067,9,/,-11,-4
CCC(=O)N1C(=O)CCN(C(C)=O)c2ccccc21,5.9,5,2799,2,-12,-2,10
CN1CCCN(Cc2ccccc2Br)CC1,-0.9,4,4068,4,0,-12,2
CC1(C)CN=C(Nc2ccccc2C(F)(F)F)S1,10,5,3750,5,2,-27,9
Cc1ccnc(NC(=O)CCC(=O)N(CC(=O)NC(C)(C)C)c2ccc3c(c2)OCO3)c1,2.2,9,3590,19,-10,-21,12
CC(C)C(NC(=O)c1ccccc1)C(=O)NCc1ccccn1 (stereo unspecified),7.1,2,7752,13,6,-27,2
Cc1cccc(OCC(=O)N(C)CC(=O)Nc2cccc(F)c2)c1C,4.0,6,/,-4,/,/,2
